Assay outcomes deposited in PubChem by Broad Institute.
A1 apoptosis 2: compounds inhibiting A1, read as caspase activation; MEF A1-2A-BIM cells, caspase-Glo luminescence, 3 h; percent of clofoctol response, DMSO zero; caspase activation, % (concentration not given with the values); 24,000 tested, under 10 active; AID 2465; in the data active = caspase activation above about 5.9%;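 note: wells of about 30 µL received 50 nL stock; the first replicate is given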
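Test system – A1-2A-BIM-expressing MEF cells · Input – 2500 cells/well · Medium – RPMI-1640 growth medium with 10% FBS · Compound dosing – 50 nL pinned compound · Timing – 3 h compound exposure at 37 °C · Technique – Caspase-Glo luminescence (DEVD substrate) · Evaluation – Caspase-3/7 activity from luminescence increase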
* hit, by the source's call.

Sample of the layout (two entries):
structure	A1 apoptosis 2
C[C@H](CO)N1C[C@H](C)[C@H](CN(C)C(=O)C2CCCCC2)OCCCC[C@H](C)Oc2ccc(NS(=O)(=O)c3cn(C)cn3)cc2C1=O	-0.3
Cc1ccc(S(=O)(=O)N(C)C[C@@H]2Oc3c(NS(=O)(=O)c4ccc(F)cc4)cccc3C(=O)N([C@@H](C)CO)C[C@H]2C)cc1	-0.6

The list itself, repeating the preview:
structure	A1 apoptosis 2
C[C@H](CO)N1C[C@H](C)[C@H](CN(C)C(=O)C2CCCCC2)OCCCC[C@H](C)Oc2ccc(NS(=O)(=O)c3cn(C)cn3)cc2C1=O	-0.3
Cc1ccc(S(=O)(=O)N(C)C[C@@H]2Oc3c(NS(=O)(=O)c4ccc(F)cc4)cccc3C(=O)N([C@@H](C)CO)C[C@H]2C)cc1	-0.6
C[C@@H]1CN([C@@H](C)CO)C(=O)c2cc(NC(=O)CCC(F)(F)F)ccc2O[C@@H](C)CCCCO[C@H]1CN(C)C(=O)c1ccccc1	-0.4
O=C(N/N=C/c1cccc(Oc2ccccc2)c1)c1ccccc1O	-6.4
Cc1ccc(S(=O)(=O)Nc2ccc3c(c2)C(=O)N([C@H](C)CO)C[C@@H](C)[C@H](CN(C)C(=O)Nc2ccc(F)cc2)O3)cc1	-0.1
C[C@H]1CN([C@@H](C)CO)C(=O)Cc2cc(NC(=O)Cc3ccccc3)ccc2O[C@@H]1CN(C)C(=O)Nc1ccccc1	0.4
C[C@H](CO)N1C[C@H](C)[C@H](CN(C)S(=O)(=O)c2cn(C)cn2)Oc2ccc(NC(=O)c3ccncc3)cc2CC1=O	0.3
C[C@@H]1CCCCO[C@H](CN(C)S(C)(=O)=O)[C@@H](C)CN([C@@H](C)CO)C(=O)c2cc(NC(=O)C3CCCCC3)ccc2O1	1.1
C[C@@H]1CN([C@H](C)CO)C(=O)c2cc(NC(=O)Nc3cccc4ccccc34)ccc2O[C@@H](C)CCCCO[C@H]1CN(C)C(=O)c1ccccc1	0.8
C[C@H]1CN([C@@H](C)CO)C(=O)c2cccc(NS(C)(=O)=O)c2O[C@@H]1CN(C)Cc1ccccc1	0.0
CC(C)NC(=O)N(C)C[C@H]1OCCCC[C@@H](C)Oc2ccc(NC(=O)c3ccccc3)cc2C(=O)N([C@H](C)CO)C[C@@H]1C	1.2
COc1ccc(S(=O)(=O)Nc2cccc3c2O[C@H](CN(C)C(=O)NC2CCCCC2)[C@H](C)CN([C@H](C)CO)C3=O)cc1	0.6
C[C@@H]1CCCCO[C@H](CN(C)C(=O)Nc2cccc3ccccc23)[C@@H](C)CN([C@H](C)CO)C(=O)c2cc(NC(=O)c3ccncc3)ccc2O1	0.3
C[C@@H]1CN([C@@H](C)CO)C(=O)Cc2cc(NC(=O)C3CC3)ccc2O[C@H]1CN(C)S(=O)(=O)c1cccs1	-0.7
Cc1noc(C)c1NC(=O)Nc1ccc2c(c1)C(=O)N([C@H](C)CO)C[C@H](C)[C@@H](CN(C)C(=O)NC(C)C)OCCCC[C@@H](C)O2	1.0

The closing 4 records of the part before open the next one.
structure	A1 apoptosis 2
COc1ccc(S(=O)(=O)Nc2cccc3c2O[C@H](CN(C)C(=O)NC2CCCCC2)[C@H](C)CN([C@H](C)CO)C3=O)cc1	0.6
C[C@@H]1CCCCO[C@H](CN(C)C(=O)Nc2cccc3ccccc23)[C@@H](C)CN([C@H](C)CO)C(=O)c2cc(NC(=O)c3ccncc3)ccc2O1	0.3
C[C@@H]1CN([C@@H](C)CO)C(=O)Cc2cc(NC(=O)C3CC3)ccc2O[C@H]1CN(C)S(=O)(=O)c1cccs1	-0.7
Cc1noc(C)c1NC(=O)Nc1ccc2c(c1)C(=O)N([C@H](C)CO)C[C@H](C)[C@@H](CN(C)C(=O)NC(C)C)OCCCC[C@@H](C)O2	1.0
COc1ccc(NC(=O)N(C)C[C@H]2Oc3ccc(NC(=O)Nc4ccc(C(F)(F)F)cc4)cc3C(=O)N([C@H](C)CO)C[C@@H]2C)cc1	-2.2
C[C@H]1CN([C@@H](C)CO)C(=O)c2cc(NC(=O)C3CC3)ccc2O[C@@H]1CN(C)C(=O)Nc1ccccc1	0.6
C[C@H]1CCCCO[C@@H](CN(C)C(=O)Nc2ccccc2)[C@@H](C)CN([C@@H](C)CO)C(=O)c2cc(NC(=O)Cc3ccccc3)ccc2O1	-1.4
Cc1ccc(S(=O)(=O)Nc2ccc3c(c2)C(=O)N([C@H](C)CO)C[C@@H](C)[C@@H](CN(C)S(=O)(=O)c2ccccc2)OCCCC[C@@H](C)O3)cc1	-1.0
C[C@H](CO)N1C[C@H](C)[C@@H](CN(C)C(=O)Nc2cccc3ccccc23)Oc2ccc(NC(=O)CCC(F)(F)F)cc2C1=O	1.0
C[C@H]1CN([C@@H](C)CO)C(=O)c2cccc(NS(=O)(=O)c3ccccc3)c2O[C@H]1CN(C)S(=O)(=O)c1ccc(F)cc1	0.4
COc1ccc(S(=O)(=O)Nc2ccc3c(c2)CC(=O)N([C@@H](C)CO)C[C@@H](C)[C@@H](CN(C)C(=O)Nc2ccccc2)O3)cc1	-0.6
Cc1ccc(S(=O)(=O)N(C)C[C@H]2Oc3ccc(NS(=O)(=O)c4cccs4)cc3C(=O)N([C@@H](C)CO)C[C@H]2C)cc1	0.1
C[C@@H]1CN([C@@H](C)CO)C(=O)c2cccc(NS(C)(=O)=O)c2O[C@H]1CN(C)C(=O)NC1CCCCC1	-0.2
O=C(C1=C[C@H](c2ccc(C(F)(F)F)cc2)C[C@H](OCc2ccc(CO)cc2)O1)N1CCN(Cc2ccccc2)CC1	0.1
C[C@H](CO)N1C[C@H](C)[C@@H](CN(C)C(=O)Nc2ccc(F)cc2)Oc2ccc(NC(=O)Nc3ccccc3)cc2CC1=O	0.0
CC(C)NC(=O)N(C)C[C@H]1OCCCC[C@H](C)Oc2ccc(NC(=O)CCC(F)(F)F)cc2C(=O)N([C@H](C)CO)C[C@H]1C	-0.5
C[C@H](CO)N1C[C@H](C)[C@H](CN(C)C(=O)Cc2ccccc2)OCCCC[C@H](C)Oc2ccc(NS(=O)(=O)c3cccs3)cc2C1=O	0.5
Cc1ccc(S(=O)(=O)N(C)C[C@@H]2Oc3ccc(NC(=O)Cc4ccccc4)cc3C(=O)N([C@H](C)CO)C[C@@H]2C)cc1	-0.3
Cc1ccc(S(=O)(=O)Nc2ccc3c(c2)C(=O)N([C@@H](C)CO)C[C@@H](C)[C@H](CN(C)C(=O)Nc2c(C)noc2C)O3)cc1	-2.1
C[C@@H]1CN([C@@H](C)CO)C(=O)c2cc(NS(=O)(=O)c3ccc(Cl)cc3)ccc2O[C@@H]1CN(C)C(=O)Nc1cccc2ccccc12	-0.9
CC(C)NC(=O)N(C)C[C@@H]1Oc2c(NC(=O)Nc3ccccc3)cccc2C(=O)N([C@@H](C)CO)C[C@H]1C	-1.0
C[C@@H]1CCCCO[C@H](CN(C)C(=O)c2ccccc2)[C@@H](C)CN([C@H](C)CO)C(=O)c2cc(NC(=O)Nc3cccc4ccccc34)ccc2O1	0.3
C[C@@H]1CN([C@@H](C)CO)C(=O)c2cccc(NC(=O)C3CCOCC3)c2O[C@@H]1CN(C)Cc1ccc2c(c1)OCO2	-0.9
C[C@H]1CN([C@@H](C)CO)C(=O)Cc2cc(NC(=O)Nc3ccc(C(F)(F)F)cc3)ccc2O[C@H]1CN(C)Cc1ccc(Oc2ccccc2)cc1	-1.3
C[C@@H]1CCCCO[C@@H](CN(C)C(=O)c2ccccc2)[C@@H](C)CN([C@H](C)CO)C(=O)c2cc(NC(=O)Nc3ccccc3)ccc2O1	0.5
COc1ccc(NC(=O)N(C)C[C@@H]2Oc3c(NC(=O)Nc4ccc5c(c4)OCO5)cccc3C(=O)N([C@H](C)CO)C[C@@H]2C)cc1	0.0
COc1ccc(NC(=O)N(C)C[C@@H]2Oc3ccc(NC(=O)C4CC4)cc3CC(=O)N([C@H](C)CO)C[C@H]2C)cc1	0.0
CC(C)NC(=O)Nc1cccc2c1O[C@H](CN(C)C)[C@H](C)CN([C@@H](C)CO)C2=O	-0.3
CC(C)NC(=O)Nc1ccc2c(c1)C(=O)N([C@@H](C)CO)C[C@@H](C)[C@H](CN(C)CC1CCCCC1)OCCCC[C@@H](C)O2	-0.7
C[C@@H]1CN([C@H](C)CO)C(=O)Cc2cc(NS(=O)(=O)c3ccc(Cl)cc3)ccc2O[C@H]1CN(C)C(=O)Nc1ccc(C(F)(F)F)cc1	-0.3
CC(C)NC(=O)N(C)C[C@H]1Oc2ccc(NC(=O)CCCCCC(=O)Nc3ccccc3N)cc2C(=O)N([C@H](C)CO)C[C@@H]1C	-0.4
C[C@@H]1CN([C@@H](C)CO)C(=O)c2cc(NC(=O)CCCN(C)C)ccc2O[C@@H](C)CCCCO[C@@H]1CN(C)S(=O)(=O)c1cccs1	0.4
Cc1ccccc1S(=O)(=O)N(C)C[C@H]1OCc2cn(nn2)CCCC(=O)N([C@@H](C)CO)C[C@H]1C	-0.1
C[C@@H]1CN([C@@H](C)CO)C(=O)c2cc(NC(=O)c3ccncc3)ccc2O[C@@H](C)CCCCO[C@H]1CN(C)S(=O)(=O)c1cccs1	-0.3

Next section
Structure	A1 apoptosis 2
C[C@H](CO)N1C[C@H](C)[C@@H](CN(C)C(=O)NC2CCCCC2)Oc2ccc(NC(=O)NC3CCCCC3)cc2C1=O	-1.9
CC(C)NC(=O)Nc1ccc2c(c1)CC(=O)N([C@H](C)CO)C[C@H](C)[C@@H](CN(C)Cc1ccc3c(c1)OCO3)O2	-0.5
C=C/C=C/[C@@H]1C(=C)CN2[C@H]1[C@H](Cc1ccccc1)OC(=O)[C@@H]2Cc1ccccc1	0.8
C[C@H]1CCCCO[C@H](CN(C)Cc2ccc(C(=O)O)cc2)[C@@H](C)CN([C@@H](C)CO)C(=O)c2cc(NC(=O)Nc3ccc(F)cc3)ccc2O1	1.1
COc1ccc(S(=O)(=O)Nc2cccc3c2O[C@H](CN(C)CC2CCCCC2)[C@H](C)CN([C@@H](C)CO)C3=O)cc1	0.2
C[C@@H]1CCCCO[C@H](CN(C)C(=O)NC2CCCCC2)[C@H](C)CN([C@@H](C)CO)C(=O)c2cc(NC(=O)Nc3cccc4ccccc34)ccc2O1	0.0
O=C1CSC(c2ccccc2)N1c1cccc(Cl)c1 (stereo unspecified)	0.7
C=CCOC(=O)C(=O)/C=C/C(C)(C)C	0.4
C[C@@H]1CCCCO[C@@H](CN(C)S(=O)(=O)c2ccccc2)[C@@H](C)CN([C@H](C)CO)C(=O)c2cc(N(C)C)ccc2O1	0.4
C[C@@H]1CN([C@@H](C)CO)C(=O)c2cccc(NS(=O)(=O)c3cn(C)cn3)c2O[C@H]1CN(C)C(=O)Nc1ccc2c(c1)OCO2	-0.6
C[C@@H]1CCCCO[C@H](CN(C)C(=O)CCCN(C)C)[C@@H](C)CN([C@H](C)CO)C(=O)c2cc(NS(=O)(=O)c3cccs3)ccc2O1	-0.4
Cc1noc(C)c1S(=O)(=O)N(C)C[C@@H]1Oc2ccc(NC(=O)Cc3ccccc3)cc2CC(=O)N([C@@H](C)CO)C[C@@H]1C	-1.6
C[C@H]1CN([C@@H](C)CO)C(=O)Cc2cc(NC(=O)Cc3ccccc3)ccc2O[C@@H]1CN(C)C(=O)Nc1cccc2ccccc12	0.2
C[C@@H]1CCCCO[C@@H](CN(C)Cc2ccc(C(F)(F)F)cc2)[C@H](C)CN([C@H](C)CO)C(=O)c2cc(NC(=O)c3ccncc3)ccc2O1	-2.4
COc1ccc(NC(=O)N(C)C[C@H]2Oc3c(NS(=O)(=O)c4ccc(F)cc4)cccc3C(=O)N([C@@H](C)CO)C[C@@H]2C)cc1	0.2

Compounds from the list above that contain a Cl atom, in the order listed:
Structure	A1 apoptosis 2
C[C@@H]1CN([C@@H](C)CO)C(=O)c2cc(NS(=O)(=O)c3ccc(Cl)cc3)ccc2O[C@@H]1CN(C)C(=O)Nc1cccc2ccccc12	-0.9
C[C@@H]1CN([C@H](C)CO)C(=O)Cc2cc(NS(=O)(=O)c3ccc(Cl)cc3)ccc2O[C@H]1CN(C)C(=O)Nc1ccc(C(F)(F)F)cc1	-0.3
O=C1CSC(c2ccccc2)N1c1cccc(Cl)c1 (stereo unspecified)	0.7

Continuation:
Structure	A1 apoptosis 2
O=C(C1=C[C@H](c2csc3ccccc23)C[C@H](OCCCCO)O1)N1CCN(Cc2ccccc2)CC1	0.1
COc1ccc(NC(=O)Nc2ccc3c(c2)C(=O)N([C@@H](C)CO)C[C@@H](C)[C@H](CN(C)C)OCCCC[C@@H](C)O3)cc1	-0.5
Cc1noc(C)c1NC(=O)Nc1ccc2c(c1)CC(=O)N([C@H](C)CO)C[C@H](C)[C@@H](CN(C)C(=O)Nc1ccc(F)cc1)O2	0.1
Cc1ccc(S(=O)(=O)N(C)C[C@@H]2Oc3c(NC(=O)Nc4c(C)noc4C)cccc3C(=O)N([C@H](C)CO)C[C@@H]2C)cc1	0.4
C[C@@H]1CCCCO[C@H](CN(C)C)[C@@H](C)CN([C@@H](C)CO)C(=O)c2cc(NS(=O)(=O)c3ccc(Cl)cc3)ccc2O1	1.3
C[C@@H]1CN([C@H](C)CO)C(=O)c2cc(NC(=O)Nc3ccc4c(c3)OCO4)ccc2O[C@H]1CN(C)Cc1ccc(C(=O)O)cc1	-0.8
C[C@@H]1CCCCO[C@H](CN(C)Cc2ccc3c(c2)OCO3)[C@H](C)CN([C@@H](C)CO)C(=O)c2cc(NC(=O)c3ccncc3)ccc2O1	0.6
C[C@@H]1CN([C@@H](C)CO)C(=O)CCCn2nncc2CO[C@@H]1CN(C)C(=O)Nc1ccc2c(c1)OCCO2	-0.7
C[C@H](CO)N1C[C@H](C)[C@@H](CN(C)Cc2ccncc2)Oc2ccc(NS(=O)(=O)c3ccc(Cl)cc3)cc2CC1=O	-1.2
Cc1noc(C)c1NC(=O)N(C)C[C@H]1OCCCC[C@H](C)Oc2ccc(N(C)C)cc2C(=O)N([C@H](C)CO)C[C@H]1C	2.1
C[C@@H]1CN([C@@H](C)CO)C(=O)c2cccc(NC(=O)C3CCOCC3)c2O[C@H]1CN(C)C(=O)Nc1ccc(C(F)(F)F)cc1	-0.6

A portion of the library. The share of hits here may be higher or lower than overall.
